Screening results as filed in PubChem BioAssay.
Calb biofilm kill = mixture kills Candida albicans biofilm cells; C. albicans biofilm persisters + clotrimazole, fluorescence viability; primary screen in compound mixtures of four per well; inhibition, % at 7.6 µM; hit rate 0.02% among 120,000; AID 1242;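 active = inhibition above 30.3% in the primary screen of four-compound pools, then above 30% when the compound was retested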;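 note: compounds exposed to preformed 24 h biofilms for 48 h; the number belongs to the whole pool; some results filed as inactive read as strong as hits; inactives centre near 12; 0% = biofilm with clotrimazole alone and 100% = kill control; retested singly at about 60 µM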
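Incubation: 24 h biofilm formation, then 48 h compound exposure, 37 °C | Material: C. albicans biofilms | Buffer or medium: RPMI/MOPS medium, pH 7.0 | Measured by: 2-h Alamar Blue fluorescence, 535/590 nm excitation/emission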
Numbers without * were called inactive. Only part of the results is shown (hit frequency here may not be typical).

item	Structure	Calb biofilm kill
1	Cc1cccc(NC(=O)Cc2noc3ccccc23)c1C	18
2	O=C(NNc1nc2cc3c(cc2s1)OCO3)c1ccc(F)cc1	4
3	CCc1cccc(C)c1NC(=O)CSc1nnc(CCCOc2ccc(Cl)cc2Cl)n1C	7
4	Cc1cc(NS(=O)(=O)c2ccc(NC(=O)/C=C/c3ccc(C)o3)cc2)nc(C)n1	17
5	CCn1c(SCC(=O)Nc2nc(C)c(C)s2)nnc1-c1cccs1	8
6	Cc1cnn(-c2nc(-c3ccccc3)cc(-c3ccccc3)n2)c1	35
7	CCN(CC)S(=O)(=O)c1cccc(C(=O)NCCCn2ccnc2)c1	25
8	CN(Cc1ccccc1F)c1ccc(S(=O)(=O)N2CCCC2)cn1	2
9	NNc1ccc2nncn2n1	10
10	CCOc1ccc(CC(=O)Nc2nccs2)cc1	12
11	O=C(N/N=C/c1cccs1)c1n[nH]c2c1CCC2	17
12	O=C(COC(=O)c1cc(S(=O)(=O)Nc2ccccc2Cl)ccc1O)Nc1nc2ccccc2s1	13
13	Oc1[nH]c2ccccc2c1N=Nc1ccccc1	14
14	COc1ccc(C(C(N)=O)c2ncc(C(F)(F)F)cc2Cl)cc1 (configuration not stated)	13
15	CCOC(=O)c1ccc(Oc2ccc(C(F)(F)F)cn2)cc1	21
16	CCS(=O)(=O)c1nc(S(=O)(=O)c2ccc(Cl)cc2)c(NCc2ccccn2)s1	5
17	O=C(Cn1nc(Cc2cccnc2)c2ccccc2c1=O)Nc1cccnc1Cl	25
18	O=c1cc(O)c2sc(Nc3ccc(F)cc3)nc2[nH]1	6
19	CCN(CC)CC(=O)Nc1ccc([N+](=O)[O-])cc1	8
20	CC(C)C(NC(=O)c1ccc(C(C)(C)C)cc1)C(=O)NCCc1ccccn1 (configuration not stated)	5
21	CCc1ccc(C2(O)CC(C(F)(F)F)=NN2C(=O)Cc2ccc([N+](=O)[O-])cc2)cc1 (configuration not stated)	7
22	CC(NC(N)=O)C(=O)OCC(=O)c1ccc(-c2ccccc2)cc1 (configuration not stated)	1
23	COc1ccccc1/C=C/C(=O)NCC(=O)N/N=C/c1cccnc1	15
24	CC(=O)c1cccc(CN2CCN(Cc3ccccc3)C(CCO)C2)c1 (configuration not stated)	17
25	CC(C)NC(=O)C(=O)NCCN1CCN(C(=O)c2ccc(C(C)(C)C)cc2)CC1	18

Screen by screen, quoted from above.
Compounds 8 to 16 in Calb biofilm kill read 2, 10, 12, 17, 13, 14, 13, 21, 5

The listing continues.
item	Structure	Calb biofilm kill
26	COC(=O)c1ccc(COn2nnc3ccccc32)cc1	8
27	COc1ccccc1Nc1ccc(Nc2ccccc2OC)nn1	10
28	Cc1ccc(/C=N/NC(=O)C(c2ccncc2)N2CCOCC2)cc1 (configuration not stated)	13
29	CC(C)C1=NOC(C(=O)N2CCC(N3CCC(C(=O)N4CCOCC4)CC3)CC2)C1 (configuration not stated)	-4
30	CCn1c(COc2cccc(C)c2)nc2ccccc21	14
31	CC(Nc1ccc(Cl)cc1)C(=O)NN (configuration not stated)	3
32	Cc1cccc(OCc2n[nH]c(=S)n2-c2ccccc2)c1	19
33	Fc1ccc(NC(=S)NCCN2CCOCC2)cc1	2
34	O=C(N/N=C/c1ccccc1OCC(=O)N1CCCC1)C(=O)Nc1ccccc1F	21
35	COc1ccc(-c2[nH]ncc2CN(C)C(C)c2ccncn2)c(F)c1 (configuration not stated)	9
36	Cc1cc(-c2nc(C)c(C(=O)NNS(=O)(=O)c3cccc(C(F)(F)F)c3)s2)no1	18
37	COc1ccc(CC2(CO)CCN(C/C=C/c3ccccc3OC)CC2)cc1	17
38	COc1cc(NC(=O)c2ccc(N)nc2)cc(C(=O)Nc2cccc(C(F)(F)F)c2)c1	17
39	COc1cc(O)c(C(=O)/C=C/c2ccccc2)c(OC)c1	14
40	O=C(COc1ccc(F)cc1Br)N1CCN(S(=O)(=O)/C=C/c2ccccc2)CC1	0
41	NC(=O)c1cc2ccccc2o/c1=N/NC(=O)c1cccs1	1
42	COc1ccc(OC)c(/C=N/N=C2\SCC(=O)N2Cc2ccco2)c1	17
43	CCC(CO)Nc1nc2ccc(Cl)cc2c2ccccc12 (configuration not stated)	14
44	N#CCCn1cc(/C=C2\NC(=S)N(c3ccccc3)C2=O)c(-c2ccc(-c3ccccc3)cc2)n1	4
45	C/C(=N\NC(=O)c1ccc(C)cc1)C1C(=O)c2ccccc2C1=O	18
46	CCOC(=O)c1sc(NC(=O)OC)c(C(=O)OC)c1C	-16
47	O=C(NCCc1ccccc1)c1ccc(NCC2CCCO2)c([N+](=O)[O-])c1 (configuration not stated)	-2
48	CN1CCN(c2ccc(NC(=O)c3ccc(Cl)cc3)cn2)CC1	18
49	COc1cc(C)ccc1OCCON1C(=O)CCC1=O	12
50	O=C(/C=C/c1c(Cl)cccc1Cl)NCc1ccccc1	13
51	COC(=O)c1ccc(NC(=O)C(=O)N2CCN(C(=S)Nc3ccc(OC)cc3)CC2)cc1	7
52	CCOC(=O)N1CCN(C2CC(=O)N(c3ccc(Cl)c(Cl)c3)C2=O)CC1 (configuration not stated)	8
53	O=C(Nc1cc2c(cc1Br)OCCO2)c1ccco1	9
54	Nc1cc(=O)[nH]c(SCC(=O)Nc2cc(Cl)ccc2Cl)n1	4
55	COc1cc(OC)cc(C(=O)N[C@H](C(=O)OCC(=O)NC(C)c2ccccc2)C(C)C)c1 (some centres not stated)	5
56	CCOC(=O)COc1c(Cl)cc(C2NC(=S)NC(c3ccccc3)=C2C(C)=O)cc1OCC (configuration not stated)	-2
57	O=C(c1ccc2c(c1)OCO2)N1CCN(c2ccc(C(F)(F)F)cn2)CC1	-4
58	COC(=O)c1c(N2C(=O)CC(Sc3ccccc3C(=O)O)C2=O)sc2c1CCCC2 (configuration not stated)	14
59	Cc1cc(F)ccc1NCc1ccc([N+](=O)[O-])cc1	16
60	Cc1ccccc1N1CCN(Cc2nc(Cc3ccccc3)no2)CC1	5
61	COc1ccc(-c2cc3nnc(-c4ccccc4)nc3s2)cc1	8
62	CCOC(=O)c1sc(NC(=O)CSc2nncn2C)nc1C	13
63	Cc1ccc(S(=O)(=O)NCc2ccc(C(=O)NCCCN3CCC(Cc4ccccc4)CC3)cc2)cc1	12
64	CCn1ncc(CNC(=O)CCSc2nc(-c3ccco3)cc(C(F)(F)F)n2)c1C	14
65	Cc1ccc(S(=O)(=O)/N=C2/C=C(Sc3ncn[nH]3)C(=O)c3ccccc32)cc1	19
66	O=C(NCCO)c1cc2ccccc2cc1O	11
67	O=[N+]([O-])c1c(Nc2ccccc2O)ccc2nonc12	17
68	COc1ccccc1NS(=O)(=O)c1cc(NC(=O)Nc2ccccc2)ccc1N1CCCCC1	9
69	COC(=O)c1ccccc1Oc1ccc(NC(=O)CCCl)cc1	4
70	O=C(O)c1ccc(C(=O)c2ccc3c(c2)C(=O)N(CC2CCCO2)C3=O)cc1 (configuration not stated)	-1
71	Cc1sc2ncnc(Sc3ccccc3C(=O)Nc3ccc(C#N)cc3)c2c1C	6
72	COCCn1c(SCC(=O)NNC(=O)Cc2ccccc2)nc2ccccc2c1=O	3
73	COc1ccc(NC(=S)/N=C(\N)Nc2nc(C)c3ccccc3n2)cc1	20
74	CC1CC2(CCCC2)N(C(=O)c2ccccc2)Cc2ccccc21 (configuration not stated)	9
75	Cc1nnc(SCC(=O)NNC(=O)C(C)C)[nH]c1=O	15

Among those listed so far, these contain bromine.
item	Structure	Calb biofilm kill
40	O=C(COc1ccc(F)cc1Br)N1CCN(S(=O)(=O)/C=C/c2ccccc2)CC1	0
53	O=C(Nc1cc2c(cc1Br)OCCO2)c1ccco1	9

Going on with the list:
item	Structure	Calb biofilm kill
76	CCOC(=O)COc1c(/C=N\O)cc(Cl)cc1OC	4
77	CN1c2ccccc2C(=O)NC1c1ccc([N+](=O)[O-])s1 (configuration not stated)	11
78	Cc1ccc(OCC(=O)N/N=C/c2cccn2C)cc1C	3
79	COc1cccc(CN(C)CC(=O)Nc2cccc(C(F)(F)F)c2)c1OC	10
80	C#CCOCCOCCOCCNc1nc(N2CCN(C(=O)Cn3cc(CC(C)O)nn3)CC2)nc(N2CCN(C(=O)[C@H](CCCCN)n3cc(CCC(=O)O)nn3)CC2)n1 (some centres not stated)	13
81	CCOc1ccc(CCNC(=O)CSc2cc(=O)n(C)c3ccc(Cl)cc23)cc1OCC	11
82	C=CCOc1ccc(Br)cc1CNCCO	-2
83	CCS(=O)(=O)Nc1cccc(-c2ccc3nnc(C)n3n2)c1	13
84	N#Cc1ccsc1NC(=O)COC(=O)c1cc(Br)ccc1O	15
85	CCCCC#Cc1ccc(C(=O)NNC(=O)Nc2ccccc2)o1	23
86	CCNc1nc(NCC)nc(N/N=C/c2ccc(N(C)C)cc2)n1	5
87	CN(Cc1nccn1C)C(=O)CC1C(=O)NCCN1Cc1ccccc1C(F)(F)F (configuration not stated)	9
88	CN1C(=O)NC2(O)C(=O)c3ccccc3C12O (configuration not stated)	16
89	CCc1nnc(NC(=O)c2ccc3ccccc3n2)s1	5
90	CC(C)(S)[C@@H](N)C(=O)O	-4
91	CC(C)c1ccc(C(N)=S)cc1	18
92	COc1ccc(CNC(=O)COC(=O)/C=C/c2ccc(S(=O)(=O)N3CCOCC3)cc2)cc1	11
93	Cc1noc(C)c1CSCc1ccc(Cl)cc1	14
94	CNC(=O)CSc1nnc(-c2ccccc2F)n1CCc1ccccc1	15
95	CCOC(=O)CSc1nc(Cc2ccccc2)nc2ccccc12	3
96	CC(C)(C)C(=O)OCc1nc(-c2ccc(O)c(O)c2)cs1	15
97	NS(=O)(=O)c1ccc(CNC(=O)c2cc(-c3ccccn3)nc3ccc(Cl)cc23)cc1	9
98	O=C(COC(=O)C(c1ccccc1)c1ccccc1)NCc1ccco1	9
99	Cc1cccnc1NC(=O)Nc1ccccc1	16
100	C/C=C/c1ccc(OCCCCN2CCN(CC)CC2)c(OC)c1	8
101	COc1ccc(OC)c2c(C)cc(C)nc12	20
102	COc1ccccc1-c1cc2ccccc2[nH]1	11
103	COc1ccc(-n2c(C)c(C(=O)O)c3cc(OC)c4ccccc4c32)cc1	29
104	Cc1nn(C)c(C)c1CNC(=O)Nc1cccc(Cl)c1C	18
105	CC(C)(C)NCC(O)CON=C1c2ccccc2-c2ccccc21 (configuration not stated)	-1
106	NC(=O)C1CCN(C(=O)COc2ccc3ccccc3c2)CC1	12
107	COc1cc(O)c(/C=N/NC(=O)c2ccncc2)c(OC)c1[N+](=O)[O-]	14
108	COc1cc2c(C(=O)OCCN(C)C)c(CSc3ccccc3)n(C)c2cc1Br	22
109	Cc1ccc(OCC(=O)Nc2ccccc2F)cc1C	18
110	CCNc1ccc(Br)cc(C(=O)/C=C/c2ccc(Cl)cc2Cl)c1=O	13
111	COCCNC(=O)/C(C#N)=C/c1ccc(OCc2ccccc2)cc1	11
112	COc1ccccc1NS(=O)(=O)c1cccc(C(=O)N/N=C/c2cn(-c3ccccc3)nc2-c2ccccc2)c1	9
113	O=C(Nc1cccc(C(F)(F)F)c1)/C(=C\c1ccco1)NC(=O)c1cccs1	13
114	Cc1cc(OCC(=O)Nc2cccc(S(=O)(=O)NC3=NCCCCC3)c2)ccc1Cl	4
115	O=C1c2cccc(OCC(=O)N3N=C(c4cccs4)CC3c3ccc(F)cc3)c2CCN1Cc1cccnc1 (configuration not stated)	6
116	CC(=O)OC[C@H]1O[C@@H](O/N=C/[C@@H](C)[C@H](OCc2ccccc2)C(C)C)[C@H](OC(C)=O)[C@@H](OC(C)=O)[C@@H]1OC(C)=O	1
117	Cc1ccc(C(=O)OCc2nnc(-c3ccc(Br)cc3)o2)cc1	13
118	O=C(/C=C/c1cccc(F)c1)Nc1cc(S(=O)(=O)N2CCOCC2)ccc1N1CCCC1	9
119	CCn1c(Cc2ccccc2)nnc1SCc1ccc([N+](=O)[O-])cc1	-12
120	COC(=O)N/N=C/c1c[nH]c2ccccc12	-14
121	C/C(CC(=O)NC(C)(C)C)=N\NC(=O)COc1ccc(C)cc1Br	14
122	CCNC(=S)NS(=O)(=O)c1ccc(F)cc1	12
123	COc1ccc(-c2cn[nH]c2C)cc1OC	12
124	CCOc1c(Br)cc(C(N)=O)cc1OCc1ccccc1	14
125	CN(C(=O)COC(=O)c1nc(Cl)c(Cl)c(Cl)c1Cl)C1CCS(=O)(=O)C1 (configuration not stated)	-1

Reprinted at random: two entries already listed.
item	Structure	Calb biofilm kill
116	CC(=O)OC[C@H]1O[C@@H](O/N=C/[C@@H](C)[C@H](OCc2ccccc2)C(C)C)[C@H](OC(C)=O)[C@@H](OC(C)=O)[C@@H]1OC(C)=O	1
118	O=C(/C=C/c1cccc(F)c1)Nc1cc(S(=O)(=O)N2CCOCC2)ccc1N1CCCC1	9

More compounds follow.
item	Structure	Calb biofilm kill
126	COc1cc(C(=S)N2CCCC2)ccc1OS(=O)(=O)c1ccc(NC(C)=O)cc1	11
127	Cc1cc(C(=O)NCCN2CCOCC2)ccc1[N+](=O)[O-]	-9
128	BrC(=C\c1ccccc1)/C=N/Nc1ccc2nncn2n1	19
129	C=CCn1c(=NC(=O)c2cccs2)sc2cc(NC(C)=O)ccc21	17
130	COc1ccccc1NC1=CC(=O)CC(c2ccccc2)C1 (configuration not stated)	17
131	O=C1C2CC=CCC2C(=O)N1Nc1ccccc1 (configuration not stated)	5
132	Cc1ccc(C(=O)OCC(=O)Nc2ccccc2N2CCOCC2)cc1	13
133	Clc1cccc(Nc2nc(-c3ccncc3)cs2)c1	10

By substructure: the entries above containing a cyano group
item	Structure	Calb biofilm kill
44	N#CCCn1cc(/C=C2\NC(=S)N(c3ccccc3)C2=O)c(-c2ccc(-c3ccccc3)cc2)n1	4
71	Cc1sc2ncnc(Sc3ccccc3C(=O)Nc3ccc(C#N)cc3)c2c1C	6
84	N#Cc1ccsc1NC(=O)COC(=O)c1cc(Br)ccc1O	15
111	COCCNC(=O)/C(C#N)=C/c1ccc(OCc2ccccc2)cc1	11
